# Biofilm kill mix: mixture kills Candida albicans biofilm cells; 120,000 compounds, 0.02% hits; C. albicans biofilm persisters + clotrimazole, fluorescence viability; primary screen in compound mixtures of four per well; AID 1242; inhibition, % at 7.6 µM;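 active = inhibition above 30.3% in the primary screen of four-compound pools, then above 30% when the compound was retested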;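 also: compounds exposed to preformed 24 h biofilms for 48 h; the number belongs to the whole pool; some results filed as inactive read as strong as hits; inactives centre near 12; 0% = biofilm with clotrimazole alone and 100% = kill control; retested singly at about 60 µM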
#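 Assay system: C. albicans biofilms / Medium: RPMI/MOPS medium, pH 7.0 / Schedule: biofilm formation 24 h, compound exposure 48 h, 37 °C / Measured by: Alamar Blue fluorescence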
# * hit, by the source's call.
# Start of the data: the first 2 compounds, to show the layout:
SMILES,Biofilm kill mix
O=C(NC1CCCCC1)N1CCN(Cc2ccco2)CC1,13
Cc1ccc2c(c1)C1CN(C)CCC1N2C(=S)NC(=O)c1ccc(Cl)cc1Cl (stereo unspecified),11

# All compounds of this part, from the start:
SMILES,Biofilm kill mix
O=C(NC1CCCCC1)N1CCN(Cc2ccco2)CC1,13
Cc1ccc2c(c1)C1CN(C)CCC1N2C(=S)NC(=O)c1ccc(Cl)cc1Cl (stereo unspecified),11
O=S(=O)(/N=C(\c1ccccc1F)N1CCCCC1)c1ccccc1,6
O=C(O)c1cc(N/N=C/c2ccc3c(c2)OCCO3)ccc1Cl,9
COc1ccc(/C=C(/NC(=O)c2cccs2)C(=O)NCc2ccco2)cc1OC,6
COc1cc(/C=C(\C#N)c2ccccn2)cc(OC)c1O,19
Cn1c(=O)c(C(=O)COC(=O)c2cc(C(F)(F)F)nc3ccccc23)c(N)n(Cc2ccccc2)c1=O,20
O=C(CCl)Nc1ccc2c(c1)OCO2,10
Cc1cc(C(=O)NNC(=O)c2cccc(S(=O)(=O)N3CCOCC3)c2)c2ccccc2n1,12
O=C1CCC(N2C(=O)c3ccccc3C2=O)C(=O)N1 (stereo unspecified),16
COc1cc(CNCCCN2CCOCC2)cc(Br)c1OCc1ccc(Cl)cc1,10
COc1cccc(CNC(=O)C(=O)NCC(c2ccco2)N2CCOCC2)c1 (stereo unspecified),13
CCc1cccc(CC)c1NC(=O)COC(=O)/C(C#N)=C/c1ccc(OC)cc1,10
Nc1ncnc(NCc2ccc(F)cc2)c1[N+](=O)[O-],12
Cc1[nH]c(=O)[nH]c(=O)c1Cc1cccc2ccccc12,33
COc1ccc(Oc2coc3cc(OC(=O)/C=C/c4ccccc4)ccc3c2=O)cc1,10
CCc1ccccc1NC(=O)CCC(=O)OCC(=O)c1ccc(-c2ccccc2)cc1,13
O=[N+]([O-])c1cc(S(=O)(=O)Nc2ccc(Cl)cc2)ccc1N/N=C/c1ccncc1,16
O=S(=O)(N/N=C/c1ccccc1OCc1ccc(Cl)cc1)c1ccccc1,0
NC(Cc1ccc(O)c([N+](=O)[O-])c1)C(=O)O (stereo unspecified),9
O=C(O)CC(Cc1ccccc1)C(=O)Nc1ccc([N+](=O)[O-])cc1 (stereo unspecified),13
Cc1c(NC(=O)/C(=C/c2cccs2)c2cccs2)c(=O)n(-c2ccccc2)n1C,14
O=C(CSC1=NC(=O)C(Cc2ccccc2)C(=O)N1)Nc1ncc(Br)cc1Br (stereo unspecified),14
CCn1cc([N+](=O)[O-])c(C(=O)N2N=C(c3ccc4ccccc4c3)CC2c2ccccc2O)n1 (stereo unspecified),9
CCCC(=O)c1cc2c(cc1NC(=O)CC)OCCO2,-9
CN1CCN(c2ccc(NC(=O)c3ccc(C#N)cc3F)cc2Cl)CC1,6
O=C(/C=C/c1ccc(S(=O)(=O)N2CCOCC2)cc1)NCc1ccccc1,9
COc1ccc(C(CNC(=O)Cc2ccccc2F)N2CCCCC2)cc1 (stereo unspecified),15
O=C(CC1(O)C(=O)N(CCc2ccccc2)c2ccccc21)c1ccccn1 (stereo unspecified),7
CC12CCC(C(=O)NNc3ccc([N+](=O)[O-])cc3)(OC1=O)C2(C)C (stereo unspecified),20
O=C(COC(=O)Cc1ccccc1[N+](=O)[O-])NC1CCCC1,12
CC(=O)N(C)c1ccc(NC(=O)COc2ccc(Br)cc2C)cc1,-1
CC(C)NC(=O)c1ccccc1NC(=O)/C=C/c1cccc([N+](=O)[O-])c1,18
NS(=O)(=O)c1ccc(CNC(=S)NC2CCCC2)cc1,20
COc1ccc(Cl)cc1NC(=O)CSc1nc(C)cc(C)n1,28
O=C(CSCCO)Nc1ccc(C23CC4CC(CC(C4)C2)C3)cc1,13
COc1cc(C(CC(=O)O)n2cnnn2)ccc1OC(C)C (stereo unspecified),12
COc1ccc(-c2cc(=O)c3c(O)c(OC)c(O)cc3o2)cc1,21
COc1cc(C=Nc2ccccc2C(=O)Nc2ccccc2)cc(OC)c1OC,18
C/C(=N\NS(=O)(=O)c1ccccc1)c1ccccc1,23

# Next section (4 carried over from the part before).
SMILES,Biofilm kill mix
COc1cc(C(CC(=O)O)n2cnnn2)ccc1OC(C)C (stereo unspecified),12
COc1ccc(-c2cc(=O)c3c(O)c(OC)c(O)cc3o2)cc1,21
COc1cc(C=Nc2ccccc2C(=O)Nc2ccccc2)cc(OC)c1OC,18
C/C(=N\NS(=O)(=O)c1ccccc1)c1ccccc1,23
COc1ccc(C(=O)CNc2ccc3ccccc3c2)cc1,17
C/C(N)=C(/C#N)C(=O)COC(=O)c1oc2ccccc2c1COC(C)C,9
COP(=O)(OC)C(Nc1cc(Cl)cc(Cl)c1)c1cccc(O)c1 (stereo unspecified),11
CCOc1cccc(=O)c2c(C)n(Cc3ccccc3)c(C)c12,9
CC1CCN(CC(=O)Nc2ccccc2Sc2ccccc2)CC1,13
O=C(CN1CCN(CCO)CC1)Nc1ccccc1,9
Cc1ccc(C(C(=O)Nc2ccc3c(c2)OCO3)N(C)C(=O)/C=C\c2ccc3c(c2)OCO3)cc1 (stereo unspecified),13
CN(C(=S)NC(=O)Cc1ccccc1)c1ccccc1,10
Cc1ccc(S(=O)(=O)NCCSc2nnnn2-c2ccccc2)cc1,12
S=c1[nH]nc(-c2ccccc2)c2ccccc12,9
C=C1CCN([C@@H](C)C(=O)NCCCCCC)S(=O)(=O)c2ccccc21,14
CC(C)(O)C#Cc1ccc(CN2CCN(Cc3ccccc3)C(CCO)C2)s1 (stereo unspecified),13
CC(C)(C)C(=O)NC(NC(=O)C(C)(C)C)c1ccc([N+](=O)[O-])cc1,17
O=C(N/N=C/c1ccc(-c2cccc([N+](=O)[O-])c2)o1)c1ccc([N+](=O)[O-])cc1,13
CCn1c(Nc2ccccc2Cl)nc2ccccc21,12
O=C(O)CCNS(=O)(=O)c1ccccc1C(F)(F)F,8
O=C(c1ccc2c(c1)OCO2)N1CCC(Cc2ccccc2)CC1,1
CN1CCN(C(=O)C2=C[C@@H](c3ccc4c(c3)OCO4)C[C@@H](OCc3ccc(CO)cc3)O2)CC1,20
O=[N+]([O-])c1ccc(CN2CCOCCOCCOCC2)cc1,-1
COc1ccc(COCC(O)CN2CCC(C(N)=O)CC2)cc1 (stereo unspecified),13
Oc1ccc(N2CCN(C(c3ccccn3)c3nnnn3C3CCCC3)CC2)cc1 (stereo unspecified),14
CC1CCCN(C(=O)COc2ccc(Nc3ccccc3)cc2)C1 (stereo unspecified),10
CCN1CCN(Cc2ccc(NC(=O)c3ccc(C)c(NC(=O)c4ccnnc4)c3)cc2C(F)(F)F)CC1,16
Cn1c(CSCc2ccc(F)cc2)nnc1SCC(=O)Nc1cccc(C(=O)O)c1,21
COc1cc(/C=C2\SC(=Nc3cccnc3)NC2=O)cc(OC)c1OC,13
CC(=O)c1ccc(Sc2ccccc2N)c([N+](=O)[O-])c1,24
OC(CN1CCc2ccccc2C1)c1ccccc1 (stereo unspecified),11
CCOc1ccc(CNCc2ccccc2Cl)cc1,20
COC(=O)c1cc([N+](=O)[O-])c(-n2ccnc2)c([N+](=O)[O-])c1,17
O=C(Cn1c(COc2ccccc2)nc2ccccc21)Nc1cccc(Cl)c1,17
Cc1ccccc1Nc1nc(N)nc(COC(=O)/C=C/c2ccco2)n1,15
CCCCCNC(=O)c1ccc2c(=O)n(CCCOCC)c(=S)[nH]c2c1,12
CCCCCc1ccc(S(=O)(=O)Nc2cc(C)ccn2)cc1,12
O=S(=O)(NC1CCCCC1)c1ccc(N2CCOCC2)nc1,22
COc1ccc(NC(=O)c2ccccc2N(Cc2ccccc2)S(C)(=O)=O)cc1,1
COCCN1CCCC(CNCc2cn(C)nc2-c2ccc(Oc3ccccc3)cc2)C1 (stereo unspecified),15
Cc1sc2nc(CN3CCOCC3)[nH]c(=S)c2c1C,-5
N#Cc1cc2c(=O)n3ccccc3nc2n(Cc2ccco2)c1=NC(=O)c1ccco1,12
Cc1oc(C(C)(C)C)cc1C(=O)N1CCN(c2ncccc2C(F)(F)F)CC1,15
CCC1=Nc2cc(C(=O)O)ccc2Sc2ccccc21,11
CC(NC(=O)c1ccccc1NC(=O)c1ccncc1)c1ccccc1 (stereo unspecified),17
O=c1oc2ccccc2cc1-c1nc2c(s1)CCc1ccccc1-2,2
Cc1cc(CNC(=O)COc2ccc(F)cc2F)c2ccccc2n1,9
Cc1c(C(=O)O)sc2nc3n(c(=O)c12)CCC(C)CC3 (stereo unspecified),4
CC(=O)N/C(=C\c1ccc(F)cc1)C(=O)N(C)C,15
CCOc1ccc(C(NC(C)=O)c2ccc(OC)c(OC)c2)cc1 (stereo unspecified),17
Cn1nc(C(C)(C)C)cc1NC(=O)Nc1ccc(F)cc1F,10
O=C(Nc1cccc(F)c1)N1C2CCC1CC(O)(c1cccnc1)C2 (stereo unspecified),1
O=C(Cc1ccc(F)cc1)Nc1ccccc1Sc1ccccc1,5
COc1ccccc1NS(=O)(=O)c1ccc(N/N=C/c2c(C)nn(-c3ccccc3)c2N2CCCC2)c([N+](=O)[O-])c1,6

# Continued.
SMILES,Biofilm kill mix
Cc1ccc(CNC(=O)CCCN2C(=S)NC(C)(C)CC2C)cc1 (stereo unspecified),-5
CCCN1C(=O)/C(=N\OCC(=O)Nc2ccc(C(C)C)cc2)c2ccccc21,8
Cc1cc(NC(=S)N(CCN2CCCCC2)Cc2ccco2)ccc1Cl,12
COc1ccc(C(C)C)cc1S(=O)(=O)n1ccnc1C,15
COc1cc(/C=C/C(=O)NCCN2CCOCC2)cc(OC)c1OC,14
Cc1cccc(C)c1NC(=O)NNC(=O)c1cc(C(C)(C)C)nn1Cc1ccccc1,10
COc1ccc(-c2nn(-c3ccccc3)cc2/C=C/C(=O)O)cc1[N+](=O)[O-],-4
CC(Oc1cccc2cccnc12)C(=O)N/N=C/c1ccccc1 (stereo unspecified),7
O=C(CCNC(=O)c1ccc([N+](=O)[O-])cc1)Nc1cccc(S(=O)(=O)N2CCCCC2)c1,9
O=C(O)CNS(=O)(=O)Cc1ccccc1,18

# Given bar-delimited: entries from further up.
Structure | Biofilm kill mix
CC(Oc1cccc2cccnc12)C(=O)N/N=C/c1ccccc1 (stereo unspecified) | 7
COc1ccc(C(C)C)cc1S(=O)(=O)n1ccnc1C | 15
Cc1ccc(CNC(=O)CCCN2C(=S)NC(C)(C)CC2C)cc1 (stereo unspecified) | -5
O=C(O)CNS(=O)(=O)Cc1ccccc1 | 18
CCCN1C(=O)/C(=N\OCC(=O)Nc2ccc(C(C)C)cc2)c2ccccc21 | 8

# Later entries.
SMILES,Biofilm kill mix
CCN(CC)c1cc(C)c(C#N)c2nc3ccccc3n12,6
CCS(=O)(=O)CCn1c([N+](=O)[O-])cnc1C,14
O=C(COc1ccc2ccc(=O)oc2c1)N1CCN(c2ccccc2)CC1,13
COc1ccc(N=Nc2cc(C)c(O)c(CN3CCCCC3)c2)cc1,17
Cn1cccc1C(=O)OCC(=O)N1c2ccccc2NC(=O)C1(C)C,9
Cc1cc(NC(=S)NC(=O)/C=C/c2ccc(S(=O)(=O)N3CCOCC3)cc2)ccc1Br,-10
CCC1=NN(C(=O)Cc2ccccc2)C(O)(c2ccncc2)C1 (stereo unspecified),5
O=C(N/N=C/c1cccnc1)c1ccc2c(c1)OCCO2,9
CC(C)C(=O)Nc1cccc(-c2csc(-c3ccccc3)n2)c1,-7
O=C(CNC(=O)c1cccc(Br)c1)N/N=C/c1cn[nH]c1-c1ccccc1,23

# Rewritten with each value named: part of the list above
SMILES: O=C(COc1ccc2ccc(=O)oc2c1)N1CCN(c2ccccc2)CC1
  Biofilm kill mix: 13

SMILES: CCS(=O)(=O)CCn1c([N+](=O)[O-])cnc1C
  Biofilm kill mix: 14

SMILES: COc1ccc(N=Nc2cc(C)c(O)c(CN3CCCCC3)c2)cc1
  Biofilm kill mix: 17

SMILES: O=C(N/N=C/c1cccnc1)c1ccc2c(c1)OCCO2
  Biofilm kill mix: 9

# (more compounds)
SMILES,Biofilm kill mix
Nc1nc(SCC(=O)NC2CCCC2)[nH]c(=O)c1NC(=O)c1cccs1,16
CCN(CC)S(=O)(=O)c1cccc(C(=O)OCC(=O)c2ccc3c(c2)OCCO3)c1,17
CCOC(=O)c1cc([N+](=O)[O-])c([N+](=O)[O-])cc1NC(C)=O,7
COc1ccc(OC)c(NC(=O)N2CCCC(C)C2)c1 (stereo unspecified),19
CCCCN(CC(=O)NCCOC)C(=O)Cn1nnc2ccccc21,7
O=C(O)CC/C(=N\NC(=O)CNC(=O)/C=C/c1ccccc1)c1ccccc1,17
Cc1cc(C(=O)COC(=O)c2ccco2)c(C)n1Cc1ccco1,15
CCCOc1ccc(CN(CCC#N)C(=S)NC(=O)c2ccccc2)cc1,4
COc1cc(NC(=O)CSc2ccccc2)c(C(=O)O)cc1OC,12
CC1(C)OC(=O)C(=CNc2ccccc2)C(=O)O1,9
CC(=O)N1CCN(c2ccc(C(N)=O)cc2[N+](=O)[O-])CC1,2
Cn1c(=O)c2c(nc(SCC(=O)NCc3ccc4c(c3)OCO4)n2Cc2ccc(Cl)cc2)n(C)c1=O,16
O=C(Oc1ccc(/C=N/n2cnnc2)cc1)c1cccc([N+](=O)[O-])c1,1
COc1ccc(CNC(=O)CN=C2NC(=O)C(c3ccccc3)(c3ccccc3)N2)cc1,15
CC(=O)OC(C)C(=O)NS(=O)(=O)c1ccc(C)cc1 (stereo unspecified),14
Nc1nc2ccccc2n1C(=O)c1cccs1,13
CCOc1ccc(N(Cc2nnc3n2CCCCC3)C(=O)Nc2cccc(C)c2)cc1,13

# Screens as filed in PubChem.

# A portion of the library; rates above refer to the full screens.
